Source: PubChem BioAssay
EPAC1 ag val: validation of human EPAC1 agonists | EPAC1 Rap1b BODIPY-GDP exchange, fluorescence | O95398 | Potency, µM, without a hit: max response, positive = active, actives largely listed as activators | 16,000 compounds, 1% hits; active = well fitted activation curve with a large enough effect; inconclusive = small, poorly fitted or top-dose-only effect; inactive = no such curve, though single readings can be large or run the other way;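 note: nearly all actives have a fitted effect of over 70% in size; series mostly up to about 76 or 150 µM; scaled to a cAMP control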
Target sequence (O95398 whole entry, looked up): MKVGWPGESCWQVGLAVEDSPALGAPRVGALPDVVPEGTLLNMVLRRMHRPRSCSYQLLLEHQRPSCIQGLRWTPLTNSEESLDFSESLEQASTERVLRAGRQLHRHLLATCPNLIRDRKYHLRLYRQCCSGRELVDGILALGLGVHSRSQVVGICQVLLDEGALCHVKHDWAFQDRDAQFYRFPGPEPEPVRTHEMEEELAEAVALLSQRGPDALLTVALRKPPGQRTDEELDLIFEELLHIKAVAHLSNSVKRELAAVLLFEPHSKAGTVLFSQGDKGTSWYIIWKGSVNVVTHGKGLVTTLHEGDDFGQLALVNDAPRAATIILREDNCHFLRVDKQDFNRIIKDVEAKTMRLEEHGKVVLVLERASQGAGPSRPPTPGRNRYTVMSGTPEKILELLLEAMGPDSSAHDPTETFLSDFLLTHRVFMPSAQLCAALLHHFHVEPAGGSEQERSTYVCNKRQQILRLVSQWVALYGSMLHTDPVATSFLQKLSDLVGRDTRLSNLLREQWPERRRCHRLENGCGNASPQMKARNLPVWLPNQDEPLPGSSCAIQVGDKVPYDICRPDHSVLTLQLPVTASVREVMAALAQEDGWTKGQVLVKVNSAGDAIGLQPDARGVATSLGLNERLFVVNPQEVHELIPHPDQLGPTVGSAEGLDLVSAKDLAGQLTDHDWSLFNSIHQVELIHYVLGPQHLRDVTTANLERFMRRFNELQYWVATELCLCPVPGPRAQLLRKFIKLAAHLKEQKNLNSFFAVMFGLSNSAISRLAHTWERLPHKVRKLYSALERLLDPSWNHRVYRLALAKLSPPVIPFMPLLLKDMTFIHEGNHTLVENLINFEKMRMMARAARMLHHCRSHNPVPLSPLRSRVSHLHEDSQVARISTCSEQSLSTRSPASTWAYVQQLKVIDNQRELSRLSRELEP
The depositor's hits bear a star; ? = inconclusive; & = joins results of further samples; [ ] = another dose, or the depositor's remark. % is set by controls: 0 for no effect and ±100 for the full control effect; potency is the fitted concentration of half-maximal effect. The list is partial, so the mix of outcomes need not match the whole.

EPAC1 ag val | structure
-8% | Cc1ccccc1-c1ccc(CN2CCc3nnc(C(NS(C)(=O)=O)C(C)C)n3CC2)cc1 (stereo not given)
? | CN(C)C(=O)c1ccc(-c2ccc3ncnc(Nc4ccc(F)cc4)c3c2)cc1
-9% | Cc1ccc(CNc2nc(CN3CCCCC3c3cccnc3)nc3ccccc23)o1 (stereo not given)
? | COc1ccc(Oc2ncc3nc(-c4cn(C)c5ccccc45)c(=O)n(C)c3n2)cc1
28%&11% | CN(Cc1ccc(C(C)(C)C)cc1)Cc1cccc2ccccc12
-2% | COc1cc2c(cc1OC)[C@@H]1CC(=O)[C@@H](CC(C)C)CN1CC2
4% | O=C1CC[C@@H](C(=O)N2CSC[C@H]2C(=O)O)N1
? | COC(=O)[C@@H]1C[C@@H](NC(=O)c2cnsn2)CN1Cc1ccc(Cl)cc1
-11% | CCCCC[C@H](O)/C=C/[C@@H]1[C@H]2C/C(=C/CCCC(=O)O)O[C@H]2C[C@H]1O
-9% | COC(=O)[C@@H]1CCCN1S(=O)(=O)Cc1ccccc1
-2% | CC(C)c1c(C(=O)NCc2cccnc2)cnn1-c1nccc(-c2ccccc2F)n1
-22% | c1ccc2oc(C3=NCCN3)cc2c1
2% | COc1ccc(NC2=Nc3ccccc3N[C@@]23C[C@H]2CCCC(=O)N4CC[C@@H](C3)[C@@H]24)cc1
-16% | CCNc1ncc2nc(-c3ccc(F)cc3)c(=O)n(-c3ccccc3)c2n1
-8% | CCOc1ccc(NS(=O)(=O)c2ccc(N)cc2)nn1
23% | Cc1c(-c2ccc(O)cc2)nn(-c2ccc(O)cc2)c1-c1ccc(OCCN2CCCCC2)cc1
-26% | Cc1ccccc1CNc1ncnc2c1ncn2[C@@H]1O[C@H](CO)[C@@H](O)[C@H]1O
15% | COc1ccccc1CNC(=O)c1cnn(-c2nccc(-c3cccs3)n2)c1C
-2% | COCC(=O)Nc1cc(C(=O)N2CCC(c3ccccc3)CC2)cc2nc(-c3ccccc3)n(C)c12
-3%&-41% | CN(C)CCC(c1ccc(Br)cc1)c1ccccn1 (stereo not given)
? | CCN1CCN(c2cc3c(cc2F)c(=O)c(C(=O)O)cn3C2CC2)CC1
-44%[inhibitor] | CCNc1ncc2ncc(=O)n(C[C@H]3CCCO3)c2n1
5% | NCCC1CCCC(CCN)N1 (stereo not given)
? | COc1ccccc1CNc1nc(-c2c(C)noc2C)nc2ccccc12
-13% | COc1cccc(CNC(=O)c2c(OC)cc(=O)n3c2CCN(C(=O)C2=C(C)OCCO2)CC3)c1
12% | N#Cc1cccc(-c2cncnc2NCCc2cnc[nH]2)c1
-25% | Cc1ccc2ncc(C)c(/C=C/c3ccc(N(C)C)cc3)c2c1
17% | Nc1nc(=S)c2ncn([C@@H]3O[C@H](CO)[C@@H](O)[C@H]3O)c2[nH]1
4% | O=C(O[C@@H]1Cc2c(O)cc(O)cc2OC1c1ccc(O)c(O)c1)c1cc(O)c(O)c(O)c1 (stereo not given in full)
-5% | COc1cc2c(CCNC(C)=O)c[nH]c2cc1O
-14% | O=C(O)c1cccs1
5% | Nc1nc(N)c2nc(CNc3ccc(C(=O)NC(CCC(=O)O)C(=O)O)cc3)cnc2n1 (stereo not given)
-32% | OC[C@@H](O)[C@@H](O)[C@H](O)[C@H](O)CO
8% | CC(C)CN1CC2(CCN(C(=O)c3cccc(F)c3)CC2)C1
-31% | CN(C)C(=O)c1ccc(-c2nccc(Nc3ccc(F)cc3)n2)cc1
15% | COC(=O)c1ccccc1-c1cc(C)cc2c1OC(CNC(=O)C1CCOC1)C2 (stereo not given)
-8% | CCC(N)(C(=O)O)c1ccc(C(=O)O)cc1 (stereo not given)
-11% | CCCc1c(OCCCOc2ccc(OCC(=O)O)cc2)ccc(C(C)=O)c1O
-13% | Cn1c(=O)c(-c2ccc(F)c(F)c2)nc2cncnc21
-9% | CC1=C(C(=O)O)N2C(=O)[C@@H](NC(=O)C(N)C3=CCC=CC3)[C@H]2SC1 (stereo not given in full)
-5% | Cn1c(C2CCC2)nc2cc(C(=O)N3CCOc4ccccc4C3)cc(NC(=O)C3CCCO3)c21 (stereo not given)
0% | O=C(c1ccccc1)[C@@H]1O[C@H]1c1ccc(-c2ccccc2)cc1
-35%[inhibitor] | COc1ncc2ncc(=O)n(CCc3ccccc3)c2n1
22% | COc1cc(NCCCC(C)N)c2ncccc2c1 (stereo not given)
? | CN(C)CCCO[C@@H]1[C@H]2OC(C)(C)O[C@H]2O[C@@H]1C(O)CO (stereo not given in full)
25% | COCCn1c(=O)c(-c2ccc(F)c(F)c2)nc2cncnc21
-1% | COC(=O)C1=CO[C@@H](O)[C@@H]2C(CO)=CC[C@H]12
5% | CCCCC[C@H](CC(=O)NO)C(=O)N[C@H](C(=O)N1CCC[C@H]1CO)C(C)C
2% | COc1ccccc1-c1ccnc(-n2ncc(C(=O)NC(C)(C)CO)c2C2CC2)n1
? | N#Cc1cccc(-c2nc3cnc(Nc4ccccc4)nc3n(C[C@H]3CCCO3)c2=O)c1

An excerpt from above in order of their number in EPAC1 ag val, largest number first.
mol | EPAC1 ag val
CC(C)CN1CC2(CCN(C(=O)c3cccc(F)c3)CC2)C1 | 8%
CC1=C(C(=O)O)N2C(=O)[C@@H](NC(=O)C(N)C3=CCC=CC3)[C@H]2SC1 (stereo not given in full) | -9%
Cc1ccc2ncc(C)c(/C=C/c3ccc(N(C)C)cc3)c2c1 | -25%

16 entries out of the list, arranged by molar mass, smallest number first:
EPAC1 ag val | structure
5% | NCCC1CCCC(CCN)N1 (stereo not given)
4% | O=C1CC[C@@H](C(=O)N2CSC[C@H]2C(=O)O)N1
22% | COc1cc(NCCCC(C)N)c2ncccc2c1 (stereo not given)
-44%[inhibitor] | CCNc1ncc2ncc(=O)n(C[C@H]3CCCO3)c2n1
12% | N#Cc1cccc(-c2cncnc2NCCc2cnc[nH]2)c1
17% | Nc1nc(=S)c2ncn([C@@H]3O[C@H](CO)[C@@H](O)[C@H]3O)c2[nH]1
8% | CC(C)CN1CC2(CCN(C(=O)c3cccc(F)c3)CC2)C1
25% | COCCn1c(=O)c(-c2ccc(F)c(F)c2)nc2cncnc21
-31% | CN(C)C(=O)c1ccc(-c2nccc(Nc3ccc(F)cc3)n2)cc1
-11% | CCCCC[C@H](O)/C=C/[C@@H]1[C@H]2C/C(=C/CCCC(=O)O)O[C@H]2C[C@H]1O
-16% | CCNc1ncc2nc(-c3ccc(F)cc3)c(=O)n(-c3ccccc3)c2n1
? | COC(=O)[C@@H]1C[C@@H](NC(=O)c2cnsn2)CN1Cc1ccc(Cl)cc1
? | CN(C)C(=O)c1ccc(-c2ccc3ncnc(Nc4ccc(F)cc4)c3c2)cc1
? | N#Cc1cccc(-c2nc3cnc(Nc4ccccc4)nc3n(C[C@H]3CCCO3)c2=O)c1
5% | Nc1nc(N)c2nc(CNc3ccc(C(=O)NC(CCC(=O)O)C(=O)O)cc3)cnc2n1 (stereo not given)
-2% | COCC(=O)Nc1cc(C(=O)N2CCC(c3ccccc3)CC2)cc2nc(-c3ccccc3)n(C)c12

Carrying on.
EPAC1 ag val | structure
-9% | Cc1c(C(=O)NCCC2CCCN2C)cnn1-c1nccc(-c2ccccc2F)n1 (stereo not given)
-1% | CN(C)C(=O)c1ccc(-c2nc(N3CCOCC3)c3ccccc3n2)cc1
4% | Cc1cc2c(cc1C)N[C@]1(C[C@H]3CCCC(=O)N4CC[C@@H](C1)[C@@H]34)C(=Nc1ccccc1C)N2
-75%[inhibitor] | CC(C)CN1CCCC2(CCN(C(=O)c3cccn3C)CC2)C1
-13% | CN(C)c1ncc2nc(-c3cc(F)cc(F)c3)c(=O)n(C[C@H]3CCCO3)c2n1
-11% | CC(C)CN1CCC(=O)N([C@H](CO)c2ccccc2)CC1
10% | O=C(NCCc1nnc2n1CCN(CC1CC=CCC1)CC2)c1ccc(F)cc1 (stereo not given)
-80%[inhibitor] | CC(C)C1=CC2=CCC3[C@@](C)(CCC[C@@]3(C)C(=O)O)C2CC1 (stereo not given in full)
-17% | CCOC(=O)C12CC1/C(=N/O)c1ccccc1O2 (stereo not given)
-20% | Nc1nc(N)nc(-c2cc(Cl)ccc2Cl)n1
-10% | CN1C(CSCC(F)(F)F)Nc2cc(Cl)c(S(N)(=O)=O)cc2S1(=O)=O (stereo not given)
-14% | CCc1nc2cc(C(=O)NCC3CCS(=O)(=O)C3)cc(NC(=O)c3ccccc3OC)c2n1C (stereo not given)
3% | COc1ccccc1CC(=O)NCC1Cc2cc(F)cc(-c3cncnc3)c2O1 (stereo not given)
-14% | CC(C)[C@H](N)C(=O)OCC(CO)OCn1cnc2c(=O)[nH]c(N)nc21 (stereo not given in full)
6% | CCOC(=O)C1=C(N)Oc2ccc(Br)cc2[C@@H]1[C@@H](C#N)C(=O)OCC
3%&-17%&-1%&-1% | CC(N=C(NC#N)Nc1ccncc1)C(C)(C)C (stereo not given)
-55%[inhibitor] | CC(=O)N1CCC2(CCN(Cc3cc(C(F)(F)F)cc(C(F)(F)F)c3)CC2)CC1
-19% | CC(=O)OC1CC(OC(C)=O)[C@]2(C)C(CC(OC(C)=O)[C@]3(C)C2CC[C@@]2(C)C(c4ccoc4)OC(=O)C4O[C@]432)C1(C)C (stereo not given in full)
100µM* | COc1ccccc1CNc1nc(-c2ccc3c(c2)OCO3)nc2ccccc12
8% | C[C@@H](O)[C@H]1C(=O)N2C(C(=O)O)=C(S[C@@H]3CN[C@H](CNS(N)(=O)=O)C3)[C@H](C)[C@H]12
10% | Cc1cnc(C(=O)NCc2c(C)ncc3c2CCN(C(=O)/C=C/c2cccs2)C3)cn1
-3% | CC(C)[C@H]1CC[C@@H](C)C[C@H]1O
0% | COc1ccc(C2Sc3ccccc3N(CCN(C)C)C(=O)C2OC(C)=O)cc1 (stereo not given)
4% | CCNc1ncc2nc(-c3cn(C)c4ccccc34)c(=O)n(Cc3ccc(F)cc3)c2n1
-52%[inhibitor] | COc1ccccc1CN1CC[C@@]2(CCCN(S(C)(=O)=O)C2)C1
-8% | COc1cccc(-c2ccnc(-n3ncc(C(=O)NCc4cccnc4)c3C3CC3)n2)c1
0% | Clc1nccc2c1ccc1ccccc12
-5% | CC(C)Cc1cc(C(=O)NCC2Cc3cc(F)cc(-c4ccccn4)c3O2)no1 (stereo not given)
4% | Cc1ccc(C(=O)Cn2c3c(sc2=N)CCCC3)cc1
-8% | N#CCCn1c(=O)c(-c2ccc(F)cc2)nc2cnc(Oc3ccccc3)nc21
-2% | COc1ccccc1-c1coc2cc(O)ccc2c1=O
-1% | COc1cc(=O)n2c(c1C(=O)N(C)Cc1nonc1C)CCN(Cc1cccc(Cl)c1)CC2
12% | CCOc1cc(OCC)c(C(=O)CCC(=O)O)cc1OCC
-19% | CCCCCCCCOc1ccccc1C(=O)Nc1ccc(C(=O)OCC[N+](C)(CC)CC)cc1
-3%&-1% | CO[C@@]1(NC(=O)CSCC#N)C(=O)N2C(C(=O)O)=C(CSc3nnnn3C)CS[C@@H]21
-44%&-46%[inhibitor] | CC(C)c1nc(CN(C)C(=O)N[C@H](C(=O)N[C@@H](Cc2ccccc2)C[C@H](O)[C@H](Cc2ccccc2)NC(=O)OCc2cncs2)C(C)C)cs1
-15%&-42% | O=C(O)[C@H](O)[C@@H](O)[C@H](O)[C@H](O)CO
-11% | C1=CC2C3C=CC(C3)C2C1 (stereo not given)
2% | COc1ccccc1N1CCN(CCN(C(=O)c2ccc(F)cc2)c2ccccn2)CC1
-24%&-24%&-10%&13% | CC(C)(Oc1ccc(Cl)cc1)C(=O)O
6% | COc1ccc2c(c1)[C@]1(C)CCC(=O)C[C@H]1CC2
-48%[inhibitor] | COc1ncc2nc(-c3ccc(Cl)cc3)c(=O)n(C[C@H]3CCCO3)c2n1
-22% | COCCNc1ncnc2ccc(-c3c(C)noc3C)cc12
-4% | CNC(C)[C@@H]1CC[C@@H](N)[C@@H](O[C@H]2[C@H](O)[C@@H](O[C@H]3OC[C@](C)(O)[C@H](NC)[C@H]3O)[C@H](N)C[C@@H]2N)O1 (stereo not given in full)
? | CC(=O)OC1CC[C@@]2(C)C(CC[C@@]3(C)C2CC=C2C4CC(C)(C)CC[C@]4(C)CC[C@@]23C)C1(C)C (stereo not given in full)
-19% | COc1ccc2[nH]cc(CCNc3ccnc(-c4c(C)noc4C)n3)c2c1
18% | COc1cccc2c1[C@@H]1CN(CCCCn3c(=O)[nH]c4c(sc5ncc(-c6ccccc6)nc54)c3=O)C[C@@H]1CO2
100µM* | c1ccc2c(Cc3c[nH]c4ccccc34)c[nH]c2c1
-47%[inhibitor] | COC(=O)N1CCC2(CCCN(c3ccncc3)C2)CC1
-44%&-102%[inhibitor] | CCCCC(CC)COC(=O)CC(C(=O)OCC(CC)CCCC)S(=O)(=O)O (stereo not given)

Later entries.
EPAC1 ag val | structure
-6% | CC(=O)OCC1=C(C(=O)O)N2C(=O)[C@@H](NC(=O)Cc3ccccc3)[C@H]2SC1
40µM* | CC(=O)[C@]1(O)Cc2c(O)c3c(c(O)c2[C@@H](O[C@H]2C[C@H](N)[C@H](O)[C@H](C)O2)C1)C(=O)c1ccccc1C3=O
-4%&-9% | CCn1ccnc1CC1COc2ccccc2O1 (stereo not given)
-12% | Cc1cnc(-n2ncc(C(=O)N3CCN(C(C)C)CC3)c2-c2ccco2)nc1-c1ccc(F)cc1
-1%&-17% | C#CCCCCCCCCCCCCCCCC(=O)O
-63%[inhibitor] | COc1ccc(Oc2ncc3nc(-c4cc(F)cc(F)c4)c(=O)n(CCC#N)c3n2)cc1
-2% | CC(=O)c1ccc(F)c(-c2cc(C)cc3c2OC(CNC(=O)C(C)n2nc(C)cc2C)C3)c1 (stereo not given)
-7% | CON
-63%[inhibitor] | Cn1cccc1C(=O)N1CCC[C@@]2(CCN(c3ccccn3)C2)C1
-3% | COc1cccc(Cn2c(=O)c(C)nc3cnc(N(C)C)nc32)c1
-5% | CN(C(=O)c1cnn(-c2ncc3c(n2)-c2ccccc2CCC3)c1C1CC1)C1CCOC1 (stereo not given)
-10% | Cc1ccc(CN2CCc3nnc(C(NS(C)(=O)=O)C(C)C)n3CC2)cc1C (stereo not given)
